Screening results: PubChem, several laboratories
Arbovirus inh = arbovirus infection inhibition. actives 0.37% (n = 200,000). arbovirus infection cell-based antiviral screen. AID 1251. inhibition, % at 10 µM;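 active = inhibition from about 30%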;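 note: bluetongue infection of BSR cells; cell survival read as ATP light after 72 h; 0% = infected wells without compound and 100% = uninfected wells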
Mtb H37Rv = M. tuberculosis H37Rv growth inhibitors, H37Rv strain (AID 1626) | M. tuberculosis H37Rv growth inhibition; higher % means a stronger effect | one-dose inhibition, % at 10 µM; IC50 in µM for titrated hits | actives 0.95% (n = 220,000);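 active = confirmed in a dose series; inconclusive = inhibition above 80% but not taken into the dose series; inactive = below 80% or under 30% at every dose of the series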;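 note: bacteria incubated seven days before Alamar blue readout; 0% = bacteria only wells and 100% = bacteria with antibiotic wells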
Mtb bLac sens = beta-lactam sensitization of Mtb H37Rv. M. tuberculosis H37Rv growth with meropenem, percent inhibition; hits of this screen are not shown here. inhibition, % at 25 µM. actives 0.27% (n = 330,000). AID 434955;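 active = about 74% or more and at least 40 points above the plate without the antibiotic, then above 30% in a dose series; inconclusive = first-round hits that could not be retested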;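 note: growth measured after seven days incubation then overnight dye step; 0% = bacteria only wells and 100% = bacteria with antibiotic; twin plates without the antibiotic show which effects depend on it; some results filed as inactive read as strong as hits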
RecA intein inh = inhibitors of M. tuberculosis RecA intein splicing. P9WHJ3. cell-free RecA intein splicing, fluorescence. inhibition, %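 (about 9 µM by stock and volumes)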. actives 0.75% (n = 290,000). AID 2221; in the data active = inhibition above about 30%; inconclusive = no clear call, values can overlap the other calls;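 note: 0% = vehicle wells and 100% = reference inhibitor control wells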
Target sequence (P9WHJ3 whole entry, looked up): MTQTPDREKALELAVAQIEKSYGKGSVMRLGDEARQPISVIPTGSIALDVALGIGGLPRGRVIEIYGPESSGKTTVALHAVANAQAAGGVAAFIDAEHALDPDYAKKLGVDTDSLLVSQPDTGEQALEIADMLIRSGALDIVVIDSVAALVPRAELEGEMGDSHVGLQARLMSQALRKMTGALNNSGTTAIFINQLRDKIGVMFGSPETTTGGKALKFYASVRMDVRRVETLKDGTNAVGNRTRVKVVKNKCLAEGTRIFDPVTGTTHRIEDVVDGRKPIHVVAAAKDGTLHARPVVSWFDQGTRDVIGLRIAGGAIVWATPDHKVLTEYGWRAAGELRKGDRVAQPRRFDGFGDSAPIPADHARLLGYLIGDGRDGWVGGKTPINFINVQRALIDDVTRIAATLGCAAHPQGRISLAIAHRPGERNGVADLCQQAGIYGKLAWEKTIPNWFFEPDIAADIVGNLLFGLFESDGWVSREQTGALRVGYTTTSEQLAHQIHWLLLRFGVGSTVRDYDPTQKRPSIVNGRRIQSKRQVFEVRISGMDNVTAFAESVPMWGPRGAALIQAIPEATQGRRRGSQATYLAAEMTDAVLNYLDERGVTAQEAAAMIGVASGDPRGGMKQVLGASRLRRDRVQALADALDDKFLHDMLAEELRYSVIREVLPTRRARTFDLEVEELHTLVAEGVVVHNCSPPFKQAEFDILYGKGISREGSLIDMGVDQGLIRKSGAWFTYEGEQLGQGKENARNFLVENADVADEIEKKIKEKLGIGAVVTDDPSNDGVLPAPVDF
YopH PTP inh = blocks Yersinia enterocolitica YopH tyrosine phosphatase; fluorescence Ex485/Em525; actives 0.16% (n = 140,000); inhibition, %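 (about 10 µM by stock and volumes)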;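 active = inhibition of 50% or more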;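 note: controls were vehicle for no effect and minimum signal wells for full effect; inactives centre near -20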
Arbovirus inh repeat = further read-out of Arbovirus inh, marked with its call; inhibition, %; measured here: 10K subset replicate screen; many hits read low in the repeat;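 first of two repeat runs on a subset; 0% = infected and 100% = uninfected wells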
The depositor's hits bear a star; ? = inconclusive; . = not tested or not shown.

SMILES	Arbovirus inh	Mtb H37Rv	Mtb bLac sens	RecA intein inh	YopH PTP inh	others
COc1ccc(CN2CCN(C(=O)C3CCC(CNS(=O)(=O)c4ccccc4)CC3)CC2)c(OC)c1OC (stereo not given)	4	4%	-4	0.3	.
COc1ccccc1N1CCN(C2CCCN(C(=O)CCc3ccccn3)C2)CC1 (stereo not given)	.	.	-10	-2.0	.
CC(C)(CNc1ccc([N+](=O)[O-])cc1Cl)CNS(C)(=O)=O	7	-1%	-2	1.1	7
COc1ccc(S(=O)(=O)NCC(=O)NC2CC2)cc1OC	.	.	-4	-1.2	.
CC(C)NC(=O)c1ccccc1NC(=O)C1CCCO1 (stereo not given)	9	-2%	-4	-1.0	-22
COc1cccc(NC(C)C(=O)N2CC(C)OC(C)C2)c1 (stereo not given)	3	-9%	-2	1.1	-10
CC(C)Cn1c(N)c(C(=O)COC(=O)CN2C(=O)C3CC=CCC3C2=O)c(=O)n(C)c1=O (stereo not given)	14	-4%	-7	.	.
Cc1cc(Cl)nc(NC(=O)Nc2cccc(Cl)c2)n1	.	.	5	-0.9	.
O=C(NCc1ccccc1)c1ccc(/C=N/O)nc1	4	-4%	8	-5.8	-22	Arbovirus inh repeat=0
CCSc1cc(N2CC(C)OC(C)C2)nc(-c2ccccc2Cl)n1 (stereo not given)	-3	9%	56	11	-19
CN/C(=C\[N+](=O)[O-])NCCSCc1csc(CN(C)C)n1	.	-6%	-1	-1.8	.
Cc1nc2ccccc2n1S(=O)(=O)c1ccc(S(=O)(=O)N2CCCCCC2)cc1	1	-8%	-18	-1.9	-15
CC(=O)n1c2ccccc2c2ccccc21	-4	2%	3	-0.5	-27
CCC(C)NC(=O)CSc1nc2ccsc2c(=O)n1NC(=O)c1ccccc1 (stereo not given)	4	-2%	4	-0.6	-59
Cc1cccc(-c2cc(C(=O)N/N=C/c3cccnc3)c3ccccc3n2)c1	.	.	1	6.7	.
Cc1ccc(S(=O)(=O)N[C@H](C(=O)N2CCC3(O)CCCCC3C2)c2ccccc2)cc1 (stereo not given in full)	-10	4%	2	1.2	-2
Cn1ncc(Cl)c1C(=O)N1CCN(S(=O)(=O)c2cccs2)CC1	.	.	4	-2.4	.
C/C(=N\NC(=O)c1ccc(N2CCCC2=O)cc1)c1ccncc1	.	-4%	1	0.4	.
N#C/C(=C\c1ccc([N+](=O)[O-])cc1)c1nc(C2CC2)cs1	-6	13%	9	-1.9	-28
Cn1cc(SCC(=O)NCc2ccc(F)cc2)c2ccccc21	-2	3%	2	1.3	.

The closing 3 records of the part above open the next one:
SMILES	Arbovirus inh	Mtb H37Rv	Mtb bLac sens	RecA intein inh	YopH PTP inh	others
C/C(=N\NC(=O)c1ccc(N2CCCC2=O)cc1)c1ccncc1	.	-4%	1	0.4	.
N#C/C(=C\c1ccc([N+](=O)[O-])cc1)c1nc(C2CC2)cs1	-6	13%	9	-1.9	-28
Cn1cc(SCC(=O)NCc2ccc(F)cc2)c2ccccc21	-2	3%	2	1.3	.
CCc1ccc2nc3c(c(C(=O)O)c2c1)CCC3	-4	1%	-12	-1.3	-55
CC(=O)Cc1cc(=O)c2c(C)cc(O)c(C3OC(CO)C(O)C(O)C3O)c2o1 (stereo not given)	.	-8%	-5	-4.2	.
CC(=O)OC[C@H]1O[C@H](CCO/N=C(\C)CCN2CCCc3nc(C)c(C)cc32)C=C[C@@H]1OC(C)=O	0	-16%	.	.	-20
O=C(CSc1nc2ccccc2[nH]1)Nc1ccc2c(c1)CCC2	4	?	62	4.6	-22
Cc1ccc(S(=O)(=O)/N=C(\c2ccc(F)cc2)n2c(C)nc3ccccc32)cc1	-3	4%	-8	0.7	-41
O=C(c1ccc([N+](=O)[O-])cc1)N1CCSC1c1ccccc1Cl (stereo not given)	0	-1%	14	-0.7	.
Cc1cccc(N2C(=O)c3ccc(C(=O)Nc4c[nH]c(=O)[nH]c4=O)cc3C2=O)c1	.	-10%	7	-2.2	.
Nc1cc(OCC(F)(F)F)cc(OCC(F)(F)F)c1	-2	5%	-9	-0.9	.
CCC(C(=O)NC1CCCC1)N(Cc1cccs1)C(=O)Cn1nnc(-c2ccc(OC)c(OC)c2)n1 (stereo not given)	-1	2%	-6	-1.0	0
CCC1=Nc2cc(C(=O)NCCN3CCOCC3)ccc2Sc2ccc(C)cc21	.	.	-3	2.8	.
CC(C)N(C(=O)COC(=O)[C@@H]1CC(O)CN1S(=O)(=O)c1ccc(C(C)(C)C)cc1)C(C)C (stereo not given in full)	5	-1%	-9	-4.2	.
COc1ccc(C(=O)CSc2cc(C)nc3nc(C)nn23)cc1OC	6	-5%	2	1.2	-33
CCOC(=O)N1CCN(C(=O)Nc2ccc3nc(C)c(C)nc3c2)CC1	1	5%	-11	-0.8	-20
CCCCC[n+]1ccn(-c2nc3ccccc3nc2[N-]S(=O)(=O)c2ccc(C)cc2)c1	-4	-9%	7	1.4	1
COC(=O)c1ccc(CSc2ncnc3c2sc2nc(N4CCOCC4)c4c(c23)CCCC4)o1	.	6%	0	-0.8	-5
CC(Oc1cccc(Cl)c1)C(=O)Nc1ccc([N+](=O)[O-])cn1 (stereo not given)	-6	8%	4	1.6	-6
COc1ccccc1N1CCN(C(=O)c2cc3c(s2)CCC3)CC1	-1	9%	9	3.7	-19
Cc1cccc(N(CC(N)=O)C2SC(=O)N(c3ccccc3)C2=O)c1 (stereo not given)	6	-7%	-5	-6.7	-18
Oc1ccc(Nc2nc(-c3ccc4ccccc4c3)cs2)cc1	-31	31%	93	34*	-10
O=C(NCCCc1ccccc1)C(=O)c1c[nH]c2ccccc12	.	.	0	2.6	.

The closing two records of the section before open the next one:
SMILES	Arbovirus inh	Mtb H37Rv	Mtb bLac sens	RecA intein inh	YopH PTP inh	others
Oc1ccc(Nc2nc(-c3ccc4ccccc4c3)cs2)cc1	-31	31%	93	34*	-10
O=C(NCCCc1ccccc1)C(=O)c1c[nH]c2ccccc12	.	.	0	2.6	.
C=CCNC(=S)NNC(=O)c1cc(O)ccc1O	2	-2%	-3	-12	.
COc1ccc2c(c1)c(CC(=O)OCC(=O)O)c(C)n2C(=O)c1ccc(Cl)cc1	-2	-2%	1	-3.1	.
COCCCN(C(=O)c1cccnc1SC)c1c(N)n(Cc2ccccc2)c(=O)[nH]c1=O	8	-4%	-6	0.4	-53
Cc1cccc(S(=O)(=O)Nc2nc3ccccc3nc2NCC2CCCO2)c1 (stereo not given)	.	-12%	-6	-0.8	.
COc1ccc(C(=O)NCCCN=C2NS(=O)(=O)c3ccccc32)cc1	.	.	-2	-0.4	.
CCCCN(CC)CCNC(=O)C1c2cc(OC)c(OC)cc2C(=O)N2CCc3ccccc3C12 (stereo not given)	9	9%	-17	-2.0	-15
Cc1cc(C)nc(SCC(=O)OC(C)C(=O)Nc2ccccc2)n1 (stereo not given)	.	.	-7	0.2	.
CC(=O)N1c2ccc(S(=O)(=O)N3CCC(C(=O)NC4CCCCC4)CC3)cc2CC1C (stereo not given)	.	.	0	-2.2	.
Cc1cc(C)nc(SCc2cc(=O)c(OC(=O)c3ccc(Cl)c([N+](=O)[O-])c3)co2)n1	-7	-2%	3	17	-24
Oc1ccccc1Nc1ncnc2c1oc1ccccc12	2	0%	-9	-1.4	-15
CCOC(=O)C1CCCN(S(=O)(=O)c2ccc3c(c2)N(C)C(=O)CC(=O)N3C)C1 (stereo not given)	.	.	0	-0.9	.
O=C(CCCn1c(=O)oc2ccccc21)NC1CCCCCC1	-2	-7%	-4	4.7	.
NC(=O)c1ccc(C(=O)c2ccc([N+](=O)[O-])cc2)cc1	-2	-1%	-1	1.6	-32
CC(=O)Nc1ccc(NS(=O)(=O)c2ccc(Cl)s2)cc1	9	7%	12	-3.7	.
COC(=O)c1cc(-c2ccc(NC(C)=O)cc2)nc2ccccc12	-1	6%	-6	0.7	.
CN(c1ccccc1C(=O)O)S(=O)(=O)c1ccc2[nH]c(=O)[nH]c2c1	.	.	0	0.1	.
O=C1C2CCN(CC2)C12CC2c1ccc(C(F)(F)F)cc1 (stereo not given)	.	0%	-8	-4.5	.
N#CC1=C(Nc2ccccc2Cl)SC(c2ccccc2O)NC1=O (stereo not given)	.	-5%	-3	-0.9	.
Cn1c(=O)[nH]c(=O)c2c1nc(N/N=C/C(Br)=C/c1ccccc1)n2CCO	.	-2%	-3	.	.
CC(C)N1CCC(N2CCN(CCCc3ccccc3)CC2CCO)CC1 (stereo not given)	-23	-5%	-10	8.2	.
COC(=O)c1ccc(N2C(=O)c3cc(N4CCOCC4)c([N+](=O)[O-])cc3C2=O)cc1	0	-2%	-3	-1.1	-23
CCn1nc(NC(=O)c2ccncc2)c2cc3ccccc3nc21	4	-4%	-5	-10	-44
COc1ccc(CCNC(=O)CCC(=O)n2ncc3ccc(Cl)cc32)cc1OC	.	.	0	0.9	.
CCOc1ccc(C(=O)Nc2cccc3ncccc23)cc1Br	-2	0%	1	4.7	.
OC1(c2ccc(F)cc2)CCNC1 (stereo not given)	4	4%	11	-1.1	-35
O=C(CN(C(=O)Cn1nnc(-c2ccccc2F)n1)c1cnc2ccccc2c1)NCC1CCCO1 (stereo not given)	5	6%	-1	-2.8	.
Cc1c(Cl)cccc1NC(=S)NC1CCN(C(C)C)CC1	-2	-6%	0	0.5	.
COc1ccc(-c2cccc(NC(=O)c3ccc4c(c3)OCO4)c2)nn1	.	.	3	-0.2	.
Cn1c(=O)oc2cc(S(=O)(=O)N3CCc4ccccc43)ccc21	.	-1%	10	-3.0	.
CCOC(=O)C1(Cc2cccc(F)c2)CCN(C(=O)c2ccoc2C)CC1	1	0%	-7	14	.
COC(=O)c1nn(-c2ccccc2)c(Sc2ccccc2)c1/C=N/O	10	-18%	-8	3.2	-28
CC1CCN(CCOCCOc2ccccc2-c2ccccc2)CC1	-8	2%	-5	1.5	-10
O=C(N/N=C/c1cccc(C(F)(F)F)c1)c1ccc(O)cc1	-7	-3%	2	.	.
O=C(NCC1CCCO1)C1CCN(c2ccc(S(=O)(=O)N3CCCC3)cc2)CC1 (stereo not given)	1	9%	-3	-1.9	-27
O=C(O)c1ccc(-c2ccc(/C=N/Nc3ccc([N+](=O)[O-])cc3)o2)cc1	.	11%	43	-21	.
Clc1nc2nc3n(c2nc1Cl)CCC3	.	-7%	6	-1.1	.
CN(c1ccccc1)S(=O)(=O)c1cccc(NC(=O)CN2CCc3ccccc3C2)c1	3	7%	-7	5.4	.
CN(C)c1cccc(N=C2C=C(N3CCOCC3)CC(C)(C)C2)c1	6	5%	-7	1.6	-22
CCN(CC)c1ccc(-c2nn3c(-c4cccnc4)nnc3s2)cc1	-15	.	.	-10	2
CCCN(CCC)CCCNC(=O)c1cn(C)c2ccc(S(=O)(=O)N(C)C3CCCCC3)cc2c1=O	.	.	0	-1.8	.
CC1(C)CC(=O)c2c(-c3cccs3)n[nH]c2C1	-2	-11%	-5	0.1	-8
CCOC(=O)c1cnc2c(c(C)nn2C)c1Oc1ccccc1F	.	9%	6	0.9	.
Cc1ccc(-c2nc3ccc(C(=O)O)cc3nc2-c2ccc(C)cc2)cc1	0	-5%	89	-38	-25
COc1cc(C2Nc3ccccc3C(=O)N2c2ccc3c(c2)OCCO3)ccc1OCC(C)C (stereo not given)	-17	-7%	-5	-0.2	-14
CCOc1ncccc1C(=O)OCC(=O)Nc1cc(S(=O)(=O)N(CC)CC)ccc1C	2	-6%	-3	-0.1	.
CCSc1nnc(NC(=O)C(C)C)s1	1	-5%	2	0.3	.	Arbovirus inh repeat=6
CCOC(=O)c1cc(C)[nH]c(=O)c1C#N	.	-10%	3	-42	.
O=C1NC(c2cccc([N+](=O)[O-])c2)Oc2ccccc21 (stereo not given)	12	-3%	1	-0.8	.
CCOC(=O)N1CCN(C(=O)C(NC(=O)c2ccco2)C(C)C)CC1 (stereo not given)	.	.	60	-0.2	.
CNC(=O)CCN(Cc1ccco1)S(=O)(=O)c1ccc(OC)c(OC)c1	.	7%	5	4.5	.
N#C/C(=C/c1ccc(Br)o1)C(N)=S	.	-1%	-1	0.7	.
Cc1ccc2oc(=O)n(CCOc3ccccc3C)c2c1	0	9%	3	1.2	.
Cc1ccc(CNC(=O)CCSCc2cccc(F)c2)cc1	.	.	-7	-1.7	.

Molecules above with bromine, in the order listed:
SMILES	Arbovirus inh	Mtb H37Rv	Mtb bLac sens	RecA intein inh	YopH PTP inh	others
Cn1c(=O)[nH]c(=O)c2c1nc(N/N=C/C(Br)=C/c1ccccc1)n2CCO	.	-2%	-3	.	.
CCOc1ccc(C(=O)Nc2cccc3ncccc23)cc1Br	-2	0%	1	4.7	.
N#C/C(=C/c1ccc(Br)o1)C(N)=S	.	-1%	-1	0.7	.

An excerpt; rates above refer to the full screens.
